# VDR inhibitor: blocks the human vitamin D receptor | VDR-SRC2-3 peptide fluorescence polarization, 2 h | 0.93% of 400,000 active | AID 504847 | P11473 | Potency, µM, inactives show max response, negative = inhibition, usual class: inhibitors; active = well fitted inhibition curve with a large enough effect; inconclusive = small, poorly fitted or top-dose-only effect, or another doubt; inactive = no such curve, though single readings can be large or run the other way; also: series mostly up to about 120 µM
# Target sequence (P11473 whole entry, looked up): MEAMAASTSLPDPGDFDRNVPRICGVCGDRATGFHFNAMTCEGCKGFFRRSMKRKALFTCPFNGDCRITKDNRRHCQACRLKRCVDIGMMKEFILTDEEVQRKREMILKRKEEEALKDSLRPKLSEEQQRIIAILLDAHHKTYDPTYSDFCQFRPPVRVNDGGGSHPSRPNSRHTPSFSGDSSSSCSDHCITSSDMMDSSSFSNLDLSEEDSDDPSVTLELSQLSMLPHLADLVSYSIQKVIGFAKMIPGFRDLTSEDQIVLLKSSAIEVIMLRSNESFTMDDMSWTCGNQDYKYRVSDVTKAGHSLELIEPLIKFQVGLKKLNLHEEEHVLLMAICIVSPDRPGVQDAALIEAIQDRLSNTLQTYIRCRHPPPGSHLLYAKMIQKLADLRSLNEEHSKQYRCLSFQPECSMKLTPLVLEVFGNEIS
#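 Two reagent solutions held at 4 deg C in the dark were dispensed, compounds pinned at 23 nl, and the mixture incubated 2 h at room temperature. Read-out: fluorescence polarization of VDR–SRC2-3 peptide binding.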
# * marks the source's active call; other numbers are inactive results; ? = inconclusive; & = joins results of further samples. % is scaled to controls: 0 for no effect and ±100 for the full control effect; potency is read from the fitted curve at half-maximal effect. An excerpt; rates above refer to the full screens.
VDR inhibitor | structure
-6% | CC(C)(O)CC[C@H](OC(=O)c1ccccc1)[C@](C)(O)[C@H]1CC[C@@]2(O)C3=CC(=O)[C@@H]4C[C@@H](O)[C@H](O)C[C@]4(C)C3CC[C@]12C (some centres not stated)
-9% | Cc1ccc2oc(-c3ccccc3C(=O)O)cc(=O)c2c1
? | CC1=C(C(=O)OC(C)C)C2(O)C(=O)c3ccccc3C2(O)N1 (configuration not stated)
-3% | CCC(=O)Nc1ccc(S(=O)(=O)Nc2cc(C)on2)cc1
? | COc1ccc(C2/C(=C(/O)c3ccc(F)cc3)C(=O)C(=O)N2c2ccccn2)cc1OC (configuration not stated)
79µM* | CC(C)(C)C1CCc2c(sc(N)c2C(N)=O)C1 (configuration not stated)
-15% | Cc1ccccc1C1CCCN(C(=O)c2cc(COc3c(F)cccc3F)on2)C1 (configuration not stated)
2% | CC(=O)OCCNC(=O)Cn1cnc2c1c(=O)n(C)c(=O)n2C
19% | O=C(N/N=C/c1ccsc1)c1ccccn1
-9% | O=C(COC(=O)c1cc(Br)ccc1O)c1ccc(F)cc1
1% | COc1ccc(OC)c(C2CC(=O)C(C)C(c3cc(OC)ccc3OC)N2)c1 (configuration not stated)
-12% | COc1ccccc1C(=O)NC(=O)COC(=O)c1nc2nc(C)cc(C)n2n1
-12% | COc1ccc(Br)c(C(=O)OCC(=O)NC(=O)NC2CCCC2)c1
11% | CCOc1ccc(CCNC(=O)CN2C(=O)NC(CCSC)C2=O)cc1OCC (configuration not stated)
-6% | COCCn1nc2cc(C(=O)NCc3cc(C(F)(F)F)cc(C(F)(F)F)c3)ccc2c1OC

# No new results follow: entries from further up.
VDR inhibitor | structure
-6% | CC(C)(O)CC[C@H](OC(=O)c1ccccc1)[C@](C)(O)[C@H]1CC[C@@]2(O)C3=CC(=O)[C@@H]4C[C@@H](O)[C@H](O)C[C@]4(C)C3CC[C@]12C (some centres not stated)
-9% | Cc1ccc2oc(-c3ccccc3C(=O)O)cc(=O)c2c1
? | CC1=C(C(=O)OC(C)C)C2(O)C(=O)c3ccccc3C2(O)N1 (configuration not stated)
-3% | CCC(=O)Nc1ccc(S(=O)(=O)Nc2cc(C)on2)cc1

# New compounds follow.
VDR inhibitor | structure
-17% | CNc1nc(OCC(F)(F)F)nc(N2CCOCC2)n1
1% | Cc1cccc(N2C(=O)C3CCC(c4ccccc4)CC3C2=O)c1 (configuration not stated)
-7% | CC(=O)N1N=C(c2ccccc2)CC1c1cn(Cc2ccccc2)c2ccccc12 (configuration not stated)
0% | CCc1nnc(NC(=O)c2ccc(S(=O)(=O)NCC(C)C)cc2)s1
3% | C/C(=N\NC(=O)c1ccco1)c1ccc(-c2ccccc2)cc1
-9% | COc1ccc(-c2cc(-c3ccccc3)no2)cc1
-4% | N#Cc1cc([N+](=O)[O-])ccc1NCCCn1ccnc1
0% | COc1ccc(N2CC(NC(=O)C3CC3)CC2=O)cc1 (configuration not stated)
14% | COc1ccc(C)cc1NC(=O)CCS(=O)(=O)c1ccc2c(c1)oc(=O)n2C
1% | O=C(c1cccc(C(F)(F)F)c1)C1CCCN(C(=O)CCCn2cncn2)C1 (configuration not stated)
-10% | Cc1ccc2[nH]c3c(=O)n(CC(=O)NCCCN(C)Cc4ccccc4)ncc3c2c1
2%&-3% | COc1ccc(-c2nn(C)c3sc(C(=O)NCCN(C)C)cc23)cc1OC
-4% | CN1CCCN(C(=O)Cc2c(Cl)cccc2Cl)c2nc3ccccc3nc21
-1% | Cc1cc(C)n(CC(=O)N/N=C/c2ccc3c(c2)OCO3)n1
-1%&22% | Cc1ccc(-c2[nH]c3ccccc3c2SCCNC(=O)c2ccc(S(=O)(=O)N3CCOCC3)cc2)cc1
1% | Cc1ccc(-n2c(SCc3cc(=O)n4ccsc4n3)nnc2-c2cccnc2)c(C)c1
24% | CCOc1ccc(C(=O)NCCn2cc(SCC(=O)Nc3ccc4c(c3)OCCO4)c3ccccc32)cc1
5% | CC1CCc2c(sc3nc(CSc4nnnn4C)[nH]c(=O)c23)C1 (configuration not stated)
-14% | Cc1cc(C)cc(N=c2c([N+](=O)[O-])nn(-c3cccc(Cl)c3)n2O)c1
3% | COc1ccccc1-n1c(N)c(C(=O)NCC2CCCO2)c2nc3ccccc3nc21 (configuration not stated)
13% | COc1ccc(OC)c(-c2csc(NC(=O)c3ccc(OCC4CCCO4)cc3)n2)c1 (configuration not stated)
-17% | O=C(/C(N=Nc1cccc(C(F)(F)F)c1)=C(/O)c1cccs1)C(F)(F)F
0% | CN(C)c1nc2n(c(=S)n1)CCS2
-2% | CC(=O)c1cnc(SCC(=O)O)nc1C
-6% | CCOC(=O)CSc1nnnn1-c1cccc2ccccc12
-10% | O=C1CC(c2ccc(F)cc2)Cc2nc(N3CCOCC3)ncc21 (configuration not stated)
20% | O=C(CCc1nc2ccccc2[nH]c1=O)OCC(=O)c1ccc(Cl)cc1
-2% | CC(=O)Nc1ccccc1Nc1cc(C#N)c(C#N)cc1[N+](=O)[O-]
3% | COc1ccc(C(=O)CSc2nnnn2C)c(OC)c1
19% | COc1cccc(C(=O)NNC(=O)C2CCCO2)c1 (configuration not stated)
-4% | COC(=O)c1cc(/C=C/c2ccccc2)[nH]n1
13% | Cn1c2c(c(=O)n(C)c1=O)C(c1ccccc1OC(F)F)C1=C(CCCC1=O)N2 (configuration not stated)
-6% | O=C(Nc1ccccc1)c1ccc2c(c1)OCCCO2
-7% | Cc1ccc2nc(-c3ccc(NC(=S)NC(=O)CC(C)C)cc3)sc2c1
-8% | O=C(CCCOc1ccccc1)Nc1nccs1
16% | O=C(c1ccccc1)N1CCN(c2ccc([N+](=O)[O-])c(N3CCOCC3)c2)CC1
-10% | CCNC(=O)CN1C(=O)NC2(CCCc3cc(OC)ccc32)C1=O (configuration not stated)
3% | CNc1ncnc2c1ncn2[C@H]1C[C@H](OP(=O)(O)O)[C@@H](COP(=O)(O)O)O1
-5% | C=CC[C@@H](CC(=O)N(CCO)Cc1ccccc1)C(=O)N[C@H](COC(=O)[C@@H](CC=C)Cc1ccc(F)cc1)Cc1c[nH]c2ccccc12
-3% | CC1CCC(NC(=O)c2ccc3c(c2)N(Cc2ccccc2)C(=O)c2ccccc2S3=O)CC1 (configuration not stated)
0% | CN(CCCN1CCOCC1)C(=O)c1ccc2nc(Cc3cccc(Cl)c3)oc2c1
-14% | COc1ccc(C(c2nnnn2Cc2cccs2)N2CCN(c3ccccc3F)CC2)cc1OC (configuration not stated)
-7% | Cc1ccc(N/C=C(/C#N)c2ccsc2)cc1C
-26% | Cc1ccc(-c2noc(CCC(=O)Nc3ccc(F)cc3Cl)n2)cc1
-4% | COc1cc(C#Cc2c(C=O)n(C)c3ccccc23)cc(OC)c1
-15% | CCNc1nc(NC(C)C)nc(N2CC(=O)N(CC(=O)OCC)C2=N)n1
1% | Cc1cccc2sc(N(CCCN(C)C)C(=O)COc3ccccc3)nc12
6% | CCc1c(O)nc(SCC(=O)Nc2ccc(OC)cc2)n(C2CCCCC2)c1=O
0% | COc1ccc(S(=O)(=O)NCC2CCCO2)c(Cl)c1Cl (configuration not stated)
1% | CC(C)CNC(=S)NNC(=O)c1ccccc1OC(F)F
-7% | O=C(CN1C(=O)NC(Cc2c[nH]c3ccccc23)C1=O)NC1CCCCC1 (configuration not stated)
-11% | CCC(C(=O)OCC(=O)Nc1ccc(F)cc1)c1ccccc1 (configuration not stated)
-10% | O=C(COC(=O)/C=C/c1cccc(C(F)(F)F)c1)NC(=O)NCc1ccco1
-14% | CCOC(=O)c1cnc2c(C)c(C)ccc2c1NCCN1CCOCC1
-8% | Cc1c(C)c(C)c(CN2CCCC2)c(C)c1C
-6% | Nc1nonc1-c1nc2ccccc2n1Cc1cccc(Cl)c1
1% | CN(CCC1CCCCO1)C(=O)CCc1nnc(CCCCc2ccccc2)o1 (configuration not stated)
-7% | Cc1nc2nc(C(F)(F)F)[nH]n2c(=O)c1Cc1ccccc1
-7% | O=c1c2c(O)cc(O)cc2oc2ccc(O)c(O[C@@H]3O[C@H](CO)[C@@H](O)[C@H](O)[C@H]3O[C@H]3O[C@H](CO)[C@@H](O)[C@H](O)[C@H]3O)c12
2% | COc1ccc(N(CC(=O)NCCSCc2cccc(Cl)c2)S(C)(=O)=O)cc1

# The list continues:
VDR inhibitor | structure
-22% | O=C(Nc1ccc2nccnc2c1)c1ccco1
11% | CCc1cccc(C)c1NC(=O)COC(=O)c1cc([N+](=O)[O-])ccc1N1CCOCC1
-2% | Cc1cccc(CC(=O)Nc2ccc(C(=O)N3CCCCC3)cc2)c1
-16% | CCc1ccc(CN2CCC(n3nccc3NC(=O)c3ccccc3)CC2)o1
-10% | O=C(CCn1cnc2ccccc2c1=O)Nc1ccc(S(=O)(=O)N2CCCC2)cc1
-3% | COc1ccc(S(=O)(=O)NCCc2cn3nc(C)c(C)nc3n2)cc1F
8% | COc1ccccc1-c1sc2cc3c(cc2c1C#Cc1ccccn1)OCO3
14% | CC(C)C(=O)Nc1cccc(C(=O)NCc2ccc3c(c2)OCO3)c1
-13% | CCn1c(O)c(/C=C2\C=Nc3ccccc32)sc1=Nc1ccc(C)cc1
13% | Cc1nnc(N2CCCC(C(=O)NCCc3ccccc3)C2)c2nn(-c3ccccc3)c(C)c12 (configuration not stated)
11% | CCN(CC)c1ccc(CNCc2cccs2)cc1
0% | CC(c1ccon1)N(C)C(=O)CCc1nnc(Cc2ccc(-c3ccccc3)cc2)o1 (configuration not stated)
0% | CCOc1ccc(NC(=O)NC(CC)Cn2nnc3ccccc3c2=O)cc1 (configuration not stated)
16% | OCCNc1nc2ccccc2n1-c1ccccc1
21% | Cc1ccc(S(=O)(=O)N(C)C)cc1NC(=O)CN1c2cccc3cccc(c23)S1(=O)=O

# Single values from above.
# Cc1ccc(S(=O)(=O)N(C)C)cc1NC(=O)CN1c2cccc3cccc(c23)S1(=O)=O | VDR inhibitor: 21%
# COc1ccc(OC)c(C2CC(=O)C(C)C(c3cc(OC)ccc3OC)N2)c1 (configuration not stated) | VDR inhibitor: 1%
# Cc1cccc(N2C(=O)C3CCC(c4ccccc4)CC3C2=O)c1 (configuration not stated) | VDR inhibitor: 1%
# Cc1ccc2nc(-c3ccc(NC(=S)NC(=O)CC(C)C)cc3)sc2c1 | VDR inhibitor: -7%

# The main list resumes, repeating the 6 entries before the break.
VDR inhibitor | structure
13% | Cc1nnc(N2CCCC(C(=O)NCCc3ccccc3)C2)c2nn(-c3ccccc3)c(C)c12 (configuration not stated)
11% | CCN(CC)c1ccc(CNCc2cccs2)cc1
0% | CC(c1ccon1)N(C)C(=O)CCc1nnc(Cc2ccc(-c3ccccc3)cc2)o1 (configuration not stated)
0% | CCOc1ccc(NC(=O)NC(CC)Cn2nnc3ccccc3c2=O)cc1 (configuration not stated)
16% | OCCNc1nc2ccccc2n1-c1ccccc1
21% | Cc1ccc(S(=O)(=O)N(C)C)cc1NC(=O)CN1c2cccc3cccc(c23)S1(=O)=O
21% | Cc1onc(-c2ccccc2)c1C(=O)N1CCN(c2ccccc2)CC1
6% | CCOC(=O)CC1C(=O)NCCN1C(=O)c1ccc(Cl)cc1 (configuration not stated)
21% | Cc1ccc(C(=O)CC2(O)C(=O)N(C)c3ccccc32)s1 (configuration not stated)
-3% | CCNc1nc(Oc2ccc(C(=O)OC)cc2)nc(N(C)C)n1
-21% | CCN(CC)C(=O)Cn1cc(C(=O)C(=O)N2CCN(c3ccccc3)CC2)c2ccccc21
14% | CC(C(=O)Nc1ccc2c(c1)OCCO2)N(C)CC(=O)Nc1ccccc1Br (configuration not stated)
1% | COc1ccc(CCN(C)C(=O)C(CCSC)NC(=O)c2ccco2)cc1OC (configuration not stated)
-7% | CC(C(=O)NCC1CCCO1)N(C(=O)c1snc(C(N)=O)c1N)c1ccccc1 (configuration not stated)
5% | CSC1=NCCN1C(=O)Cc1ccc(-c2ccccc2)cc1
-3% | Cc1cc(NC2CCCCC2)nc(-c2ccccc2O)n1
0% | CCc1ccc(CN(Cc2ccco2)C(=O)c2ccc(OC)cc2)cc1
9% | COc1ccc(N2CCN(CC(O)COc3cc(C)ccc3C)CC2)cc1 (configuration not stated)
-4% | CCCN1C2=NCCN2c2ccccc21
-5% | Cc1cc(=O)oc2cc(OCC(=O)Nc3cccnc3)ccc12
6% | CCCn1c(-c2ccc(OC)cc2)nc2ccccc21
-1% | CCOC(=O)c1cnc2c(-c3ccccc3)cnn2c1N
19% | CCOC(=O)CSc1nnc(-c2ccccc2)c(=O)[nH]1
-1% | Cc1ccc(C(=O)Nc2ccc(OCc3ccccc3)cc2)cc1[N+](=O)[O-]
-9%&-28% | C[C@@H](C(=O)CC(=O)OC(C)(C)C)[C@@H](O)c1ccccc1
-3% | CS(=O)(=O)N(CC(=O)NCCSc1ccccn1)c1cccc2ccccc12
9% | CCOc1cc(/C=N/NC(=O)c2cc3c(ccc4ccccc43)o2)ccc1O
-23% | CCn1c(C)cs/c1=N\S(=O)(=O)c1ccccc1
7% | O=C(Nc1ccccc1)c1cccc(C(F)(F)F)c1
5% | O=c1[nH]cnc2nc3n(c12)CCCCC3
-17% | COc1ccc(CCn2ccc(O)c(Cc3c(F)cccc3Cl)c2=O)cc1OC
-15% | CC(NC(=O)c1ccccc1)C(=O)N/N=C/c1ccco1 (configuration not stated)
-18% | COc1cccc2c1OCC([C@@H]1C[C@H]3CN(Cc4cccc(Cl)c4)C(=O)[C@]34CCCN14)=C2
1% | Cc1cccc(NC(=O)CSc2nnc(-c3ccc(S(=O)(=O)N4CCCC4)cc3)o2)c1
-17% | CC(C)n1nc(C(=O)OCC(=O)NCCc2ccc(S(N)(=O)=O)cc2)c2ccccc2c1=O
-4% | CCN(CC)S(=O)(=O)c1cc(-c2nnc(-c3ccc(Br)cc3)o2)ccc1Cl

# Reformatted tab-delimited: entries from further up
SMILES	VDR inhibitor
O=c1[nH]cnc2nc3n(c12)CCCCC3	5%
COc1ccc(CCn2ccc(O)c(Cc3c(F)cccc3Cl)c2=O)cc1OC	-17%
CC(NC(=O)c1ccccc1)C(=O)N/N=C/c1ccco1 (configuration not stated)	-15%

# Source: PubChem BioAssay
